# Hedgehog = Drosophila hedgehog isoform A inhibitors, primary screen, biochemical, plate reader, single concentration (AID 588832); 8,000 tested, under 10 active; Biochemical plate reader assay, Hedgehog inhibition; hits give high values; inhibition, % at 30.3 µM; in the data active means inhibition from about 57%;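 further: 0% = neutral control wells and 100% = positive control wells; cholesterol-driven self-cleavage of fly hedgehog protein by fluorescence polarization; read one hour after cholesterol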
# Numbers without * were called inactive.
SMILES,Hedgehog
O=C(Cn1nc(Cc2cccnc2)c2ccccc2c1=O)NCC1COc2ccccc2O1 (stereo unspecified),16.7
Cc1cccc(C)c1OCc1nnc(SCC(=O)Nc2nccs2)o1,16.7
CC(C)c1ccc(NC(=O)c2cccc(NC3=NC4CS(=O)(=O)CC4S3)c2)cc1 (stereo unspecified),5.1
Cc1c(CCC(=O)N2CCC(C(=O)O)(c3ccccc3)CC2)c(=O)oc2cc3oc4c(c3cc12)CCCC4,-5.2
CCOc1ccc(CCNC(=O)c2oc3c(c2C)-c2[nH]ncc2CC3)cc1OCC,3.6
O=C(O)c1c(Cl)cccc1Cl,10.7
O=C(NCc1ccc2c(c1)OCO2)C1CCCN(S(=O)(=O)c2cccc3cccnc23)C1 (stereo unspecified),-15.0
CCOc1ccccc1NC(=O)CCc1nnc2ccc(N3CCC(C)CC3)nn12,9.1
Cc1cccc(N(C)S(=O)(=O)c2cc3c(cc2C)n(C)c(=O)c(=O)n3C)c1,10.5
CCOC(=O)N1CCN(C(=O)CSCC(=O)Nc2nc(-c3ccc(-c4ccccc4)cc3)cs2)CC1,1.8
O=C(NCc1nnc(SCC(=O)N2CCC(Cc3ccccc3)CC2)o1)c1ccccc1F,1.8
COc1ccc(C2CC(c3cccs3)=NN2C(=O)CSc2nc3c(cnn3-c3ccccc3)c(=O)[nH]2)cc1 (stereo unspecified),-3.5
COc1cccc(N2CCN(C(=O)c3cccc(NC4=NC5CS(=O)(=O)CC5S4)c3)CC2)c1 (stereo unspecified),15.6
Cc1oc(-c2cccs2)nc1CS(=O)CC(=O)NCCc1ccccc1 (stereo unspecified),8.0
Cc1cc(C)cc(NC(=O)CCC(=O)N2CCSc3ccccc32)c1,25.0
O=C(COc1ccc2c(-c3ccccc3)cc(=O)oc2c1)N[C@H](Cc1c[nH]c2ccccc12)C(=O)O,6.5
C/C=C1\C(OC2OC(CO)C(O)C(O)C2O)OC=C(C(=O)OC)C1CC(=O)OCC1C(C)C(OC(=O)CC2C(C(=O)OC)=COC(OC3OC(CO)C(O)C(O)C3O)/C2=C\C)CC1C(CO)CO (stereo unspecified),12.3
COCCNC(=O)CS(=O)Cc1nc(-c2ccc(OC)cc2)oc1C (stereo unspecified),1.8
COC(=O)Cn1ncc2c(C)n(Cc3ccccc3)c(C)c2c1=O,1.8
CC(NC(=O)Nc1ccccc1)C(c1cccs1)N1CCN(C)CC1 (stereo unspecified),0.0
Cc1cc(NCc2ccc3c(c2)OCO3)n2nc(C)nc2n1,17.4
CCN(CC)S(=O)(=O)c1ccc(NC2c3ccccc3C(=O)N2Cc2ccco2)cc1 (stereo unspecified),6.2
CCN(CC)CCCOC(=O)C(c1ccccc1)c1ccccc1,9.0
COc1ccc(N2C(=O)C3CCCN3C2c2cccc(Br)c2)cc1 (stereo unspecified),8.3
COc1ccc2[nH]c(C)c(CCN3C(=O)OC(C)(C)C3(C)O)c2c1 (stereo unspecified),0.0
CN1CCN(C(=O)c2ccc3c(c2)N(Cc2ccc(F)cc2)C(=O)c2ccccc2S3=O)CC1 (stereo unspecified),7.0
OCCCc1ccc(O)c(O)c1,6.9
COc1cccc(C(c2sc3ncnn3c2O)N2CCN(C(=O)c3ccco3)CC2)c1 (stereo unspecified),5.4
O=C1C2CCCN2C(c2ccccc2F)N1c1cccc(Cl)c1 (stereo unspecified),15.0
NCCCNCCCCNCCCN,5.1
O=C(Cn1ncc2c(=O)oc3ccccc3c21)NCC1CCCO1 (stereo unspecified),8.0
Cc1cc(OCC(=O)N(Cc2cccs2)C2CCS(=O)(=O)C2)ccc1Cl (stereo unspecified),-3.5
CC(C)[C@H]1C(=O)Nc2ccccc2N1C(=O)N[C@@H](Cc1ccccc1)C(=O)N[C@H](Cc1ccccc1)C(=O)O,4.9
CCCNC(=O)Cn1c2ccccc2c2nc(=O)cc(C)n21,7.3
CCOC(=O)C1CCN(c2c(C(=O)c3ccccc3)cnc3ccc(Cl)cc23)CC1,19.2
CC(C)Sc1nnc(-c2c[nH]c3ccccc23)n1C,3.5
CC(C)CNC(=O)/C=C/C=C/c1ccc2c(c1)OCO2,6.8
O=C(O)c1ccc2c(c1)N(Cc1ccccc1)C(=O)c1ccccc1S2=O (stereo unspecified),5.4
CCC(Sc1nc2c(cnn2-c2ccccc2)c(=O)[nH]1)C(=O)OC (stereo unspecified),-11.5
CC(C)=CCc1c([C@@H]2CCc3ccc(O)cc3O2)cc2c(c1O)OC(C)(C)C=C2,10.3
CC1CC(C)CN(S(=O)(=O)c2ccc3c(c2)NC(=O)C(C)C(=O)N3)C1 (stereo unspecified),9.1
CC(=O)Nc1cccc(NS(=O)(=O)c2cn(C)c(=O)n(C)c2=O)c1,3.8
Cc1ccc(Nc2nc(-c3ccc(C)cc3)c(CC(=O)O)s2)cc1,2.8
COc1cc(C2C(C(N)=O)=C(C)Nc3nc(CCCO)nn32)cc(OC)c1OC (stereo unspecified),12.9
CC(NS(=O)(=O)c1ccc(Br)cc1)C(c1cccs1)N1CCOCC1 (stereo unspecified),3.4
Cc1noc(/C=C/N(C)C)c1S(=O)(=O)N1CCCC(C(=O)Nc2ccc3c(c2)OCO3)C1 (stereo unspecified),3.7
Cn1cc(S(=O)(=O)N2CCCC2)cc1C(=O)NCc1ccccc1,1.8
Cc1ccc(CNC(=O)CCS(=O)(=O)c2ccc3nc(C)sc3c2)cc1,5.1
Cc1ccc(-c2nc3cnccn3c2Nc2ccc3c(c2)OCO3)cc1,1.8
CCOC(=O)N1CCC(NC(=O)c2cccc3c2C(=O)N(c2ccc(OC)cc2)C3)CC1,0.9
Cc1c(OCC(=O)NCC2CCC(C(=O)O)CC2)ccc2c(-c3ccccc3)cc(=O)oc12 (stereo unspecified),5.1
COc1ccc(CCNC(=O)c2cccc(NC3=NC4CS(=O)(=O)CC4S3)c2)c(OC)c1 (stereo unspecified),14.9
COc1ccc(-n2c(SCC(=O)NCc3ccco3)nnc2-c2c[nH]c3ccccc23)cc1,0.9
O=C(CCn1c(=O)oc2ccccc21)N1CCN(c2ccc(F)cc2)CC1,0.0
Cc1ccccc1-c1nc(CS(=O)(=O)CC(=O)NCc2ccccc2)c(C)o1,3.5
Cc1oc(-c2ccc(Cl)cc2)nc1CS(=O)CC(=O)NCc1ccc2c(c1)OCO2 (stereo unspecified),1.7
O=C1C(O)CC2c3ccccc3CC3(CCCC3)N12 (stereo unspecified),14.9
CN1CCN(C(=O)c2ccc3c(c2)N(Cc2ccccc2)CCS3)CC1,7.7
CCOC(=O)C1CCN(C(=O)c2cc3c(-c4ccc(OC)c(OC)c4)nn(C)c3s2)CC1,9.6
Cc1ccc(N2C(=O)c3ccccc3C2Nc2ccccc2F)nc1 (stereo unspecified),5.4

# (continued)
SMILES,Hedgehog
Cc1ccc(Cn2c(Sc3nnc(C)s3)nc3c2c(=O)[nH]c(=O)n3C)cc1,0.1
CO[C@H]1/C=C/O[C@@]2(C)Oc3c(C)c(O)c4c(O)c(c5c(c4c3C2=O)NC2(CCN(CC(C)C)CC2)N=5)=NC(=O)/C(C)=C\C=C\[C@H](C)[C@H](O)[C@@H](C)[C@@H](O)[C@@H](C)[C@H](OC(C)=O)[C@@H]1C,10.7
CCCCC(=O)Nc1nc2c(OC)ccc(OC)c2s1,4.5
CSC1=NCCN1C(=O)c1ccc(S(=O)(=O)N2CCCCC2)cc1,-1.8
O=C(NCCc1c[nH]c2ccccc12)C(=O)NCC1OCCN1S(=O)(=O)c1ccc(F)cc1 (stereo unspecified),7.7
CC(=O)c1ccc(OCC(O)CN2C(C)(C)CC(O)CC2(C)C)cc1 (stereo unspecified),6.4
CCn1cc(C2=NC(C(C)C)CO2)c2ccccc21 (stereo unspecified),4.5
COc1ccc(-c2nnc(SCC(=O)N3CCOCC3)o2)cc1OC,14.9
Cc1ccc(N2C(=O)c3ccccc3C2Nc2ccc(S(=O)(=O)N3CCCCC3)cc2)nc1 (stereo unspecified),24.1
O=C(NCCc1csc(-c2ccccc2)n1)c1cccs1,3.6
CNc1ccc([N+](=O)[O-])cc1,0.0
CCCCN(C)C(=O)c1cn(C)c2ccc(S(=O)(=O)N(C)C)cc2c1=O,15.4
CCn1c(CNC(=O)c2cccc(C)c2)nc2ccccc21,4.6
CCCCNC(=O)CS(=O)Cc1nc(-c2cccc(Cl)c2)oc1C (stereo unspecified),2.6
COc1cccc(NS(=O)(=O)c2cn(C)c(=O)n(C)c2=O)c1,5.4
COC(=O)c1cc(=O)n(Cc2ccc3c(c2)OCO3)c(=Nc2ccc(F)c(Cl)c2)s1,7.2
CC1CCN(CC(C)OC(=O)c2ccc3c(c2)OCCO3)CC1 (stereo unspecified),8.7
COc1ccc(-c2cn3c(C)c(C(=O)NC(C)(C)C)sc3n2)cc1,3.8
COc1cccc(C2CC(c3ccccc3)n3ncnc3N2)c1 (stereo unspecified),6.3
COc1ccc(CC(=O)N2CCN=C2SC)cc1,3.6
COc1ccc(NC(=O)c2nnn(Cc3cccc(F)c3)c2N)c(OC)c1,23.4
CCOc1ccccc1C1C(C(=O)Nc2ccc(OC)cc2)=C(C)Nc2nc(CCCO)nn21 (stereo unspecified),10.0
COC(=O)c1cc(S(=O)(=O)NCc2ccccc2)cn1C,5.0
CCCN1CCN(CCCNC(=O)c2cc3c(=O)n(C)c4ccccc4c3n2C)CC1,12.9
CCc1ccc(NC(=O)[C@H](C)NC(=O)C2CCN(C(=O)[C@@H](N)Cc3ccccc3)CC2)cc1,5.4
CCOc1ccc(-c2cc(CCCC(=O)Nc3cccc(OC)c3)no2)cc1,10.8
Cc1cccc(N2CCN(C(=O)c3cc4ccccc4oc3=O)CC2)c1C,1.7
Nc1c(C(=O)NCc2ccccc2)nnn1Cc1ccc(F)cc1,16.7
CC(/C=N/NC(=O)c1nnn(-c2nonc2N)c1CN1CCCCC1)c1ccccc1 (stereo unspecified),3.6
CC1CCCCN1CCNC(=O)c1cc2c(=O)n(C)c3ccccc3c2n1C (stereo unspecified),-8.3
c1ccc2ncccc2c1,5.2
CC(C)Sc1nnc(Cn2c(=O)sc3ccccc32)n1-c1ccccc1,23.4
O=C(NCCN1C(=O)C2C3C=CC(C3)C2C1=O)N1CCCCC1 (stereo unspecified),11.1
Cc1nnc(NC(=O)CSc2nnc(CNC(=O)C34CC5CC(CC(C5)C3)C4)n2C2CCCCC2)s1,11.5
COc1ccc(-c2nc(CS(=O)CC(=O)NCc3ccc(Cl)cc3)c(C)o2)cc1 (stereo unspecified),1.8
Cn1cccc1Cc1nnc(SCC(=O)Nc2ccccc2F)n1-c1ccc(F)cc1,8.3
CCOC(=O)c1sc(NC(=O)CSc2nc3c(c(=O)n2-c2ccc(C)cc2)SCC3)c(C(=O)OCC)c1C,3.4
Cc1nc(CNS(=O)(=O)c2ccc3c(c2)CCCC3)cs1,1.9
CC(NC(=O)Cc1ccccc1)c1nc2ccccc2[nH]1 (stereo unspecified),-1.9
Cc1c(Cl)ccc2sc(NC(=O)C3CC3)nc12,10.9
CCN(CC)c1ccc(NC(=O)C2CCCN(S(=O)(=O)c3cccnc3)C2)c(C)c1 (stereo unspecified),10.0
O=C(Nc1cccc(Cl)c1)c1ccc(NC2=NC3CS(=O)(=O)CC3S2)cc1 (stereo unspecified),3.4
CCOC(=O)c1cc(CC)sc1N,1.8
Cc1ccc2c(c1)NC(=O)C(CC(=O)N(C)Cc1ccccc1)O2 (stereo unspecified),12.5
c1ccc2c(c1)c1cccc3ccc4cccc2c4c31,3.6
COc1cc2oc3ccccc3c(=O)c2cc1OC,5.4
CSc1nc2ccc3nc(NC(=O)c4ccccc4)sc3c2s1,6.5
Cc1cc(C)c2c(=O)n(CC(=O)N3CCC(N4CCCCC4)CC3)sc2n1,-10.6
CC(C)N1CCc2c(sc(NC(=O)c3ccc(S(=O)(=O)N4CCc5ccccc54)cc3)c2C(N)=O)C1,3.6
CC(C)Oc1ccc(CNC(=O)C2CCN(C(=O)N3CCOc4ccccc43)CC2)cc1,5.2
CN(C)c1ccc(C2N(c3ccc(F)cc3)C(=O)C3CCCN32)cc1 (stereo unspecified),16.7
COc1cccc(-n2c(Cc3cc(=O)[nH]c(=O)[nH]3)nnc2SCC(=O)N2CCCCCC2)c1,6.3
COc1ccc(C2=NS(=O)(=O)N(C)C(C(=O)NC3CCCCC3)=C2)cc1OC,6.8
Cc1ccn2cc(CNS(=O)(=O)c3ccc(Cl)s3)nc2c1,19.1

# By substructure, the entries above containing an aryl thioether with sulfur outside any ring
SMILES,Hedgehog
Cc1cccc(C)c1OCc1nnc(SCC(=O)Nc2nccs2)o1,16.7
O=C(NCc1nnc(SCC(=O)N2CCC(Cc3ccccc3)CC2)o1)c1ccccc1F,1.8
COc1ccc(C2CC(c3cccs3)=NN2C(=O)CSc2nc3c(cnn3-c3ccccc3)c(=O)[nH]2)cc1 (stereo unspecified),-3.5
CC(C)Sc1nnc(-c2c[nH]c3ccccc23)n1C,3.5
CCC(Sc1nc2c(cnn2-c2ccccc2)c(=O)[nH]1)C(=O)OC (stereo unspecified),-11.5
COc1ccc(-n2c(SCC(=O)NCc3ccco3)nnc2-c2c[nH]c3ccccc23)cc1,0.9
Cc1ccc(Cn2c(Sc3nnc(C)s3)nc3c2c(=O)[nH]c(=O)n3C)cc1,0.1
COc1ccc(-c2nnc(SCC(=O)N3CCOCC3)o2)cc1OC,14.9
CC(C)Sc1nnc(Cn2c(=O)sc3ccccc32)n1-c1ccccc1,23.4
Cc1nnc(NC(=O)CSc2nnc(CNC(=O)C34CC5CC(CC(C5)C3)C4)n2C2CCCCC2)s1,11.5
Cn1cccc1Cc1nnc(SCC(=O)Nc2ccccc2F)n1-c1ccc(F)cc1,8.3
CCOC(=O)c1sc(NC(=O)CSc2nc3c(c(=O)n2-c2ccc(C)cc2)SCC3)c(C(=O)OCC)c1C,3.4
CSc1nc2ccc3nc(NC(=O)c4ccccc4)sc3c2s1,6.5
COc1cccc(-n2c(Cc3cc(=O)[nH]c(=O)[nH]3)nnc2SCC(=O)N2CCCCCC2)c1,6.3

# Not all compounds are listed; the hit share may differ from the screen's.
